VDR inhibitor: Inhibitors of the vitamin D receptor (VDR): qHTS; Vitamin D3 receptor (Homo sapiens), P11473; VDR-SRC2-3 peptide fluorescence polarization, 2 h; Potency, µM, for the others: max response, negative = inhibition, hits mostly inhibitors; 400,000 compounds, 0.93% hits; AID 504847, 2011; active means well fitted inhibition curve with a large enough effect; inconclusive means small, poorly fitted or top-dose-only effect, or another doubt; inactive means no such curve, though single readings can be large or run the other way; further: series mostly up to about 120 µM
Target sequence (P11473 whole entry, looked up): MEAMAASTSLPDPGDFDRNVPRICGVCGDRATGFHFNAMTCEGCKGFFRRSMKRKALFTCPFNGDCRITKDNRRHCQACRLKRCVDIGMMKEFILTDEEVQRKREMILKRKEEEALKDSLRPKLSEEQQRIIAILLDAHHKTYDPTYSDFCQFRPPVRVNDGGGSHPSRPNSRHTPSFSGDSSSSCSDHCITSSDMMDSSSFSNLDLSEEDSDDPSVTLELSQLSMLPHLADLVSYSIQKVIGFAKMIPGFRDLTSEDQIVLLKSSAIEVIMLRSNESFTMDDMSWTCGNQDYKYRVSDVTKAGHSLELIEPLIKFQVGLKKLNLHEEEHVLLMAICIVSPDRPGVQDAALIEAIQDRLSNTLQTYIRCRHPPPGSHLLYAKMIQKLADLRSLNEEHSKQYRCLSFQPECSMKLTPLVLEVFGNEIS
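Compounds are added to VDR with labelled SRC2-3 coactivator peptide and held 2 h at room temperature. Inhibition of the VDR–peptide interaction is then read as a change in fluorescence polarization.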
* = called active by the depositor; ? = inconclusive; & = joins results of further samples. On the % scale 0 is the no-effect control and ±100 the full control effect; potency means the concentration at half of the fitted maximal effect. Only part of the results is shown; count on the stated rates, not on these rows.

VDR inhibitor	SMILES
2.8%	COc1ccccc1N(C)S(=O)(=O)c1ccc(C(=O)Nc2cccc(Br)c2)cc1
9.0%	CCc1ccc2oc(C(=O)Nc3ccccc3OC)cc(=O)c2c1
-18.4%	COc1ccc(S(=O)(=O)NC(C)C(=O)N2CCCCCC2)cc1 (configuration not stated)
2.9%	C=CCn1c(SCc2c(C)noc2C)nc2cc(C(=O)O)ccc2c1=O
-29.9%	C[n+]1cccc(O)c1SCc1ccccc1
1.1%	CCOC(=O)c1c(C)[nH]c(C)c1S(=O)(=O)NCc1cc(C)ccc1C
-3.5%	COc1ccc(NC(=S)NN2CCN(C)CC2)cc1
22.6%	O=C(CN1C(=O)C2C3C=CC(C3)C2C1=O)OCC(=O)c1ccc(Br)cc1 (configuration not stated)
5.5%	Cc1ccc(OCc2ccc(-c3nc(C#N)c(N4CCN(c5cccc(Cl)c5)CC4)o3)o2)cc1
-2.9%	Cc1cc(C)n(-c2ccc(NC(=O)C3CCCCN3C(=O)c3ccoc3)cc2)n1 (configuration not stated)
3.1%	Cc1[nH]c2ccc(C(=O)OC(C)C(=O)N(C)c3ccccc3)cc2c1C (configuration not stated)
-3.4%	COc1ccc(/C=C/C(=O)N2CC(C)OC(C)C2)cc1OC (configuration not stated)
23.9%	CN(C)CCOC(=O)CCCCCCCCC(=O)OCCN(C)C
-9.5%	CCOc1ccc(NC(=O)C2CCCN(C)C2)cc1 (configuration not stated)
-10.5%	O=C(NCc1cccc(Cl)c1)c1ccc2c(c1)OCCO2
6.4%	COc1ccccc1/C=C/c1nc(C#N)c(NCC(C)C)o1
-10.2%	Cc1cc(-c2ccc(C)c(S(=O)(=O)Nc3cc(C)on3)c2)on1
2.3%	Cc1ccc(Nc2ncc(C(=O)N3CCN(c4cccc(Cl)c4)CC3)c3ccccc23)cc1Cl
3.0%	CCNc1nc(NCC)n2c(SCC(=O)Nc3ccc(C(F)(F)F)cc3[N+](=O)[O-])nnc2n1
2.4%	O=C(c1ccc(Cn2cc([N+](=O)[O-])cn2)o1)N1N=C(C(F)F)CC1(O)C(F)F (configuration not stated)
-3.4%	O=C(c1ccccc1)c1cnc[nH]1
-5.3%	CCc1cccc2sc(NC(=O)C3CC3)nc12
-20.0%	O=[N+]([O-])c1ccc(Oc2cc(NC3CCCCCCC3)c([N+](=O)[O-])cc2[N+](=O)[O-])cc1
-24.6%	Cc1ccc(NC(=O)c2cccc(Oc3ccc([N+](=O)[O-])cc3)c2)c(C(=O)O)c1

3 compounds already listed, sorted by the number in VDR inhibitor, highest first:
SMILES	VDR inhibitor
O=C(c1ccccc1)c1cnc[nH]1	-3.4%
CCc1cccc2sc(NC(=O)C3CC3)nc12	-5.3%
Cc1ccc(NC(=O)c2cccc(Oc3ccc([N+](=O)[O-])cc3)c2)c(C(=O)O)c1	-24.6%

Further compounds
VDR inhibitor	SMILES
?	CN[C@H]1CCc2cc(OC)c(OC)c(OC)c2-c2ccc(N[C@@H]3CCCCNC3=O)c(=O)cc21
5.1%	O=S1(=O)CCOC[C@H](Cc2ccccc2)N1Cc1ccc(Cl)cc1
-7.4%	COC(=O)C1=C(C)NC(C)=C(C(=O)OC(C)C)[C@H]1c1cccc2nonc12
-1.8%	COc1ccc(N(Cc2cc3cccc(C)c3[nH]c2=O)S(=O)(=O)c2ccc(Cl)cc2)cc1
2.2%	O=C(Cc1cccs1)Nc1ccccc1C(=O)O
2.5%	C=CCn1c(C)cc(C)c(C#N)c1=O
?	CCOC(=O)c1c(NC(=O)c2ccc(F)cc2)sc2c1CCC(CC)C2 (configuration not stated)
15.9%	CCOc1cc(C(C(=O)NCC2CCCO2)N(C(=O)Cn2nnc3ccccc32)c2ccccc2C)ccc1O (configuration not stated)
-4.1%	CCc1nnc(N2C(=N)SCC2=O)s1
19.8%	CCCc1nc2ccccc2c(=O)n1NC(=O)c1c(O)c2cccc3c2n(c1=O)CCC3
-16.6%	O=C(NN(C(=O)C1CC1)c1nc2ccccc2s1)C1CC1
-15.2%	COc1ncccc1-c1nnn(-c2ccc(F)cc2)n1
-7.9%	CCOc1ccc(CCNC(=O)CSc2nnnn2-c2ccccc2)cc1OCC
-7.6%	O=C(CN1C(=O)S/C(=C/c2cccnc2)C1=O)N1CCOCC1
2.0%	COc1ccc(N2CCN(C(=O)C(=O)c3c(C)n(C)c4ccccc34)CC2)cc1
-14.0%	COc1ccc(/C=C2\SC(=S)N(N3CCOCC3)C2=O)c(OC)c1
-13.3%	CN(C)C(=O)c1ccc(N/C=C(\C=O)c2nc3ccccc3o2)cc1
0.4%	CCOC(=O)COc1cc(-n2c(=S)[nH]c3ccccc3c2=O)c(Cl)cc1Cl
4.6%	Cn1c(N2CCN(C(=O)Nc3ccc(F)cc3)CC2)nc2ccccc21
-7.2%	Cc1nc2cc(N3CCCCC3)c(NC(=O)c3ccncc3)cc2c(=O)n1Cc1ccccc1
2.2%	COc1c(O[C@H]2O[C@@H](CO)[C@@H](O)[C@@H](O)[C@@H]2O)cc2c(c1OC)-c1ccc(SC)c(=O)cc1[C@H](NC(C)=O)CC2
0.5%	N#Cc1c(-c2ccco2)ccn(Cc2ccc(F)cc2)c1=O
?	O=C(NNc1ccccc1C(F)(F)F)c1sccc1Br
3.0%	Cc1cccc(C)c1NC(=O)CN(C)C(=O)c1ccccc1Sc1ccccc1C#N
-11.5%	CC(C)(C)NC(=O)c1ccc2c(c1)C1C3CCC(C3)C1C(c1ccccc1)N2 (configuration not stated)
-2.1%	O=C(Cn1nnnc1CN1CCOCC1)N1CCC(c2cccc(Cl)c2)C1 (configuration not stated)
-3.2%	Cc1ccc(N(C)C(=O)c2cc(S(=O)(=O)N3CCCCC3)c[nH]2)cc1
-2.4%	CC(=O)Nc1ccc(S(=O)(=O)N2CCN(S(=O)(=O)c3ccc(F)c(F)c3F)CC2)cc1
-11.4%	O=C(c1ccccc1)N1CCN(S(=O)(=O)c2ccc(Cl)c(C(F)(F)F)c2)CC1
-0.9%	COc1cccc(OC)c1C(=O)Nc1ccc(-c2nc3ncccc3o2)cc1
17.3%	Cc1ccc(S(=O)(=O)N2CCN(C(=O)Cc3ccc(S(=O)(=O)N4CCOCC4)s3)CC2)cc1
11.5%	O=S(=O)(Cc1ccccc1Cl)NCCc1ccc(F)cc1
3.5%	COc1ccc(-c2cn3c(n2)sc2cc(C(=O)Nc4ccc(C)c(Cl)c4)ccc23)cc1
?	COc1ccc(C(c2sc3nc(C)nn3c2O)N2CCc3ccccc3C2)cc1 (configuration not stated)
-10.3%	CCOC(=O)N1CCN(C(=O)COC(=O)C2CCN(S(=O)(=O)c3c(Cl)cccc3Cl)CC2)CC1
7.4%	O=C(CCn1nnc(-c2cccs2)n1)N1CCc2ccccc2C1
11.5%	O=C(CNC(=O)c1ccc(F)cc1)OCc1cc(=O)n2nc(C3CCCCC3)sc2n1
-5.3%	CCc1ccccc1NC(=S)Nc1cc(OC)c(NC(=O)C(C)C)cc1OC
-4.9%	OC[C@@H]1CC[C@@H](Cc2ccc(-c3ccccc3)cc2)O1
-6.4%	CC[C@@]12C(=O)N(c3cccc(Br)c3)C(=O)N1[C@H](c1ccc(Br)cc1)[C@@H]1C(=O)N(C(C)(C)C)C(=O)[C@@H]12
1.4%	Cc1cc(-n2cnnn2)cc(C)c1S(=O)(=O)N(C)c1ccccc1
21.7%	Cc1ccc(CC2C(=O)N(CC(=O)O)C(=O)C2C)cc1 (configuration not stated)
-4.8%	COC(=O)Cn1cnc2scc(-c3ccc(C)cc3)c2c1=O
-5.0%	C=C(c1ccccc1)c1ccc(N(C)C)cc1
-9.1%	O=C(Nc1ccc2c(c1)CCC2)C1CCCN(c2ncccn2)C1 (configuration not stated)
-12.4%	O=C(O)C1C2CCC(O2)C1C(=O)Nc1ccc(OC(F)F)cc1 (configuration not stated)
2.9%	CCCN1CC(CSC)C[C@H]2c3cccc4[nH]cc(c34)C[C@H]21 (some centres not stated)
4.9%	O=C(CCNc1n[nH]c(=O)[nH]c1=O)N1CCCCC1

Single entries from above:
VDR inhibitor result of Cc1cc(-n2cnnn2)cc(C)c1S(=O)(=O)N(C)c1ccccc1 = 1.4%
VDR inhibitor result of O=C(CCNc1n[nH]c(=O)[nH]c1=O)N1CCCCC1 = 4.9%
VDR inhibitor result of O=C(O)C1C2CCC(O2)C1C(=O)Nc1ccc(OC(F)F)cc1 (configuration not stated) = -12.4%

Remaining list, next part.
VDR inhibitor	SMILES
9.1%	Cc1ccc(Cn2nc(C)c(NC(=O)c3noc4c3CCCCC4)c2C)cc1
-1.3%	O=C(CCS(=O)(=O)c1ccccc1)Nc1ccc2c(c1)OCO2
4.7%	CC(C)C(C(=O)NC(C)(C)C)N1C(=O)c2ccccc2C1=O (configuration not stated)
6.8%	COc1ccccc1C(=O)OCc1c(F)cccc1Cl
2.1%	O=C(CN1CCN(Cc2ccccc2Cl)C1=O)NCc1ccco1
-25.7%	CCCCN(CCCC)c1ncnc2nc[nH]c12
-6.4%	CC1(C)Cc2nc(Cl)c(C#N)cc2CO1
1.7%&16.4%	CC1CCC(C(C)C)C(OC(=O)Cn2c(-c3ccc(Br)cc3)[n+](C)c3ccccc32)C1 (configuration not stated)
16.4%	CCC(C)NC(=O)c1ccccc1NC(=O)C(C)N(c1ccccc1)S(C)(=O)=O (configuration not stated)
3.1%	CC(C)Nc1nc(NC(C)C)nc(Oc2ccc(OCc3ccccc3)nn2)n1
?	c1cncc(CNc2ccnc(-c3ccc4c(c3)OCO4)n2)c1
-5.7%	CCN(CC)c1ccc(CN(C(=O)c2ccco2)C2CCS(=O)(=O)C2)cc1 (configuration not stated)
4.8%	CC(=O)c1ccc(S(=O)(=O)N2CCN(C(=O)CSc3ccc(C)c(C)c3)CC2)cc1
3.3%	COc1cc2c(cc1OC)C(C(=O)N1CCCCC1)C(c1ccccc1F)N(C)C2=O (configuration not stated)
-9.8%	CC1CCCC(NC(=O)c2ccc3snnc3c2)C1C (configuration not stated)
1.9%	CCOc1ccc(NC(=O)c2sc3nc(N4CCOCC4)c4c(c3c2N)CC(C)(C)OC4)cc1
-1.7%	CCOC(=O)C1CCN(C(=O)COc2cc(C)c(Br)cc2C)CC1
?	CC(OC(=O)c1ccccc1O)C(=O)Nc1ccc(Cl)cn1 (configuration not stated)
-7.5%	CCC1CCCCN1C(=O)COc1ccccc1NC(C)=O (configuration not stated)
-5.0%	COc1ccccc1NS(=O)(=O)c1ccc(NC(=O)c2[nH]nc(OC)c2[N+](=O)[O-])cc1
-1.5%	Cc1ccc(C2(C)NC(=O)N(CC(=O)N3CC(=O)Nc4ccccc43)C2=O)cc1 (configuration not stated)
-3.2%	C=CCN1CC(=O)N2C(C)c3[nH]c4ccccc4c3C[C@H]2C1=O (some centres not stated)
-12.0%	O=C(CCCOc1ccc(Cl)cc1)N1CCCCC1
?	O=C(O)c1ccccc1/C=N/N1CCN(C2c3ccccc3-c3ccccc32)CC1

Overlap with the part before: six compounds, then new ones.
VDR inhibitor	SMILES
-7.5%	CCC1CCCCN1C(=O)COc1ccccc1NC(C)=O (configuration not stated)
-5.0%	COc1ccccc1NS(=O)(=O)c1ccc(NC(=O)c2[nH]nc(OC)c2[N+](=O)[O-])cc1
-1.5%	Cc1ccc(C2(C)NC(=O)N(CC(=O)N3CC(=O)Nc4ccccc43)C2=O)cc1 (configuration not stated)
-3.2%	C=CCN1CC(=O)N2C(C)c3[nH]c4ccccc4c3C[C@H]2C1=O (some centres not stated)
-12.0%	O=C(CCCOc1ccc(Cl)cc1)N1CCCCC1
?	O=C(O)c1ccccc1/C=N/N1CCN(C2c3ccccc3-c3ccccc32)CC1
-2.4%	Cc1ccc(Nc2nnc(-c3ccc(C)c(S(N)(=O)=O)c3)c3ccccc23)cc1
4.3%	C/C(CC(=O)N(C(C)C)C(C)C)=N\NC(=O)COc1ccc(Br)cc1Br
2.9%	COC(=O)CCN(C(=O)c1cc([N+](=O)[O-])cc([N+](=O)[O-])c1)c1ccccn1
-8.2%	CCOC(=O)C1CCN(C(=O)C23CC4CC(CC(C4)C2)C3)CC1
-8.7%	CC1=C(C(=O)Nc2cccnc2)C(c2ccc(F)cc2)n2nc(-c3cccc(C)c3)nc2N1 (configuration not stated)
3.8%	Cc1ccccc1Cn1cc(NC(=O)CCCn2nc([N+](=O)[O-])cc2C)cn1
-22.3%	CN(C)S(=O)(=O)c1ccc(NC(=O)CSc2nnnn2C)cc1
-11.0%	O=[N+]([O-])c1ccc2nc(NS(=O)(=O)c3ccccc3[N+](=O)[O-])sc2c1
-7.6%	O=C(c1cccc2ccccc12)N1CCN(c2ccc([N+](=O)[O-])c(N3CCOCC3)c2)CC1
-10.4%	O=C1CC(NC(=O)C(F)(F)F)c2cc3c(cc21)OCO3 (configuration not stated)
18.2%	COc1ccc(CCNC(=O)c2cc(-c3ccc(C)cc3)nc3n[nH]c(-c4ccc(F)cc4)c23)cc1OC
-16.3%	CC(=O)Nc1ccc(/C=C/c2ccc3c([N+](=O)[O-])cccc3n2)cc1
-7.6%	Cc1ccccc1S(=O)(=O)N1CCN(c2nc(-c3cccs3)nc3ccccc23)CC1
3.3%	O=C(N/N=C/c1ccc(O)cc1O)NC12CC3CC(CC(C3)C1)C2
11.3%	COc1ccc(CCNC(=O)Cn2c(C)c3cnn(-c4ccccc4)c(=O)c3c2C)cc1OC
12.1%	COc1ccc(NC(=O)CSc2nc(-c3ccc(OC)cc3)[nH]c2-c2ccc(OC)cc2)cc1
13.2%	CC1CCN(S(=O)(=O)c2ccc(NC(=O)c3ccco3)cc2)CC1
-13.8%	COc1cccc(CN2CCN(Cc3c(C)nn(C(C)C)c3C)CC2CCO)c1 (configuration not stated)
22.3%	O=C(COc1ccc(-c2nnc(N3CCCCC3)c3ccccc23)cc1)N1CCCCC1

2 consecutive compounds out of the list so far, quoted:
VDR inhibitor	SMILES
-7.6%	O=C(c1cccc2ccccc12)N1CCN(c2ccc([N+](=O)[O-])c(N3CCOCC3)c2)CC1
-10.4%	O=C1CC(NC(=O)C(F)(F)F)c2cc3c(cc21)OCO3 (configuration not stated)

Bioassay records as filed in PubChem.
